2A Renilla = Primary qHTS Assay for Foot and Mouth Disease Virus Antivirals against NCGC Sytravon and CBC Compound Libraries: Renilla Luciferase Signal; Potency, µM (top dose mostly 57.5 µM), inactives show top-dose signal change, negative = less light; actives 0.32% (n = 120,000); HEK cells with a luciferase reporter of 2A StopGo recoding; AID 1745857, 2022; active means well fitted falling curve with a large enough effect; inconclusive means small, poorly fitted or top-dose-only effect; inactive means no such curve, though single readings can be large or run the other way; also: nearly all actives have a fitted effect of over 55% in size; overnight with compound
StopGo FLuc = Primary qHTS Assay for Foot and Mouth Disease Virus Antivirals against NCGC Sytravon and CBC Compound Libraries: Firefly Luciferase Signal | HEK cells with a luciferase reporter of 2A StopGo recoding | Potency, µM (titrated, usually from 57.5 µM), inactives show at the highest dose signal change, negative = less light | actives 0.23% (n = 120,000) | AID 1745856, 2022; active = well fitted falling curve with a large enough effect; inconclusive = small, poorly fitted or top-dose-only effect; inactive = no such curve, though single readings can be large or run the other way; also: nearly all actives have a fitted effect of over 60% in size; overnight with compound
The depositor's hits bear a star; ? = inconclusive; [ ] = dose if it differs, or a comment. % is scaled to controls: 0 for no effect and ±100 for the full control effect; potency is read from the fitted curve at half-maximal effect. This is a random part of the collection; overall some 0.55% were active at least once.

mol	2A Renilla	StopGo FLuc
Cc1ccc(CNC(=O)CSc2nc3ccccc3nc2N2CCCC2)cc1	6%	8%
Cc1ccc(NC(=O)CCc2c(C)nc3nc(C)nn3c2C)c(Cl)c1	-7%	-14%
CCCCCCCCN1C(=O)[C@@H](CC(=O)NCc2ccc(OC)c(OC)c2)C[C@@]2(C(=O)OC)C1=C[C@H](COCc1ccccc1)O[C@@H]2C	?	?
O=C(CSc1ncnc2nc(N3CCOCC3)sc12)Nc1cc(C(F)(F)F)ccc1Cl	-11%	10%
CC(C)N(C(=O)COc1ccc2ccc(=O)oc2c1)c1ccccc1	8%	-16%
CCc1ccc(-c2nc(C)c(C(=O)N3CCN(Cc4ccc(C#N)cc4)CC3)s2)cc1	?	?
CC(=O)c1c(OS(=O)(=O)c2cccc3cc(C)cnc23)ccc2c(C)cc(=O)oc12	11%	7%
COC(=O)c1ccc(Cl)c(NC(=O)CN(c2ccccc2)S(=O)(=O)N(C)C)c1	0%	8%
Cc1ccccc1Cn1ccn(-c2ccc(F)c(F)c2)c(=O)c1=O	-10%	-18%
COC(=O)C1=CN(C(C)C)C=C(C(=O)OC)C1c1ccc(C(F)(F)F)cc1	42%[activator]	16%
OC(C#CC(O)(c1ccccc1)c1ccccc1)c1ccc(F)cc1 (stereo not given)	273%[activator]	79%[activator]
CC1CCN(C(=O)c2ccc(CN(c3ccccc3)S(C)(=O)=O)cc2)CC1	13%	7%
Cc1ccc(C(=O)Nc2c(-c3ccccc3)nc3ccccn23)cc1C	-6%	16%
COCCCNC(=O)C1CCN(Cc2cc3ccccc3n2Cc2cccc(Cl)c2)CC1	?	?
CC1CCN(c2nc(-c3ccc(Br)cc3)nc3ccccc23)CC1	6%	-12%
CC1(C(=O)OCc2cc(=O)oc3cc4c(cc23)CCC4)CC1(Cl)Cl (stereo not given)	2%	26%
C[N+](C)(C)CCOC(N)=O	-13%	-17%
Cc1[nH]c2ccccc2c1C(=O)C(C)Oc1ccccc1F (stereo not given)	13%	53%[activator]
O=C(Nc1nc2ccc(F)cc2s1)c1nc(S(=O)(=O)Cc2ccccc2F)ncc1Cl	45%[activator]	33%[activator]
C=C(C)Cn1c(SCCCCCC)nc2c1c(=O)[nH]c(=O)n2C	-5%	7%
O=C(Cn1c(=O)oc2cc(S(=O)(=O)N3CCCC3)ccc21)NCc1ccc(F)cc1	-2%	7%
COc1ccccc1NC(=O)C1=C(C)Nc2nc(SCc3ccccc3)nn2C1c1cccc(O)c1 (stereo not given)	5%	-6%
COc1ccc(N(CC(=O)N2CCN(Cc3ccccc3)CC2)S(=O)(=O)c2ccc(F)cc2)cc1	35%[activator]	-9%
C#CCCN([C@H](C(=O)OC)C(C)C)S(=O)(=O)c1ccccc1Br	5%	-20%
CCc1ccc2oc(C(=O)Nc3nc(C)c(C(=O)OCC(C)C)s3)cc(=O)c2c1	-9%	-14%

The final 5 entries of the part before are carried over, then new ones follow:
mol	2A Renilla	StopGo FLuc
O=C(Cn1c(=O)oc2cc(S(=O)(=O)N3CCCC3)ccc21)NCc1ccc(F)cc1	-2%	7%
COc1ccccc1NC(=O)C1=C(C)Nc2nc(SCc3ccccc3)nn2C1c1cccc(O)c1 (stereo not given)	5%	-6%
COc1ccc(N(CC(=O)N2CCN(Cc3ccccc3)CC2)S(=O)(=O)c2ccc(F)cc2)cc1	35%[activator]	-9%
C#CCCN([C@H](C(=O)OC)C(C)C)S(=O)(=O)c1ccccc1Br	5%	-20%
CCc1ccc2oc(C(=O)Nc3nc(C)c(C(=O)OCC(C)C)s3)cc(=O)c2c1	-9%	-14%
COc1ccc(C2Nc3ccccc3-n3c(-c4ccccc4)c4c(=O)n(C)c(=O)n(C)c4c32)cc1 (stereo not given)	-14%	54%[activator]
Cc1ccc(C(=O)COC(=O)C2CC(=O)N(NC(=O)c3ccc(Cl)cc3Cl)C2)cc1 (stereo not given)	-18%	-16%
CC(C)NC(=O)COc1ccc(/C=N/NC(=O)C(C)SCc2ccccc2)cc1 (stereo not given)	?	?
COc1ccc(OC)c(CNc2ncnc3onc(-c4ccc(Cl)cc4)c23)c1	1%	-5%
CCC(C)n1c(SCc2c(F)cccc2Cl)nc2ccsc2c1=O (stereo not given)	-10%	-13%
COC(=O)C1CN(Cc2ccccc2)CCS(=O)(=O)N1Cc1ccc(F)cc1 (stereo not given)	69%[activator]	11%
CCOc1ccc2nc(Cl)c(C3CC(c4ccco4)=NN3S(C)(=O)=O)cc2c1 (stereo not given)	55%[activator]	19%
Cc1ccc(CNC(=O)CCc2ccccc2)cn1	25%	53%[activator]
O=C(COCC(=O)N(c1ccccc1)c1ccccc1)Nc1ccccc1	-1%	0%
COC(=O)C1=CN(c2cccc(C(F)(F)F)c2)C=C(C(=O)OC)C1c1ccc(Cl)cc1	-2%	-2%
Cc1sc2c(c1C)c(=O)n(-c1cccc(C(F)(F)F)c1)c(=O)n2Cc1ccc(F)cc1	34%	3%
O=C(Nc1ccc(Cl)cc1Cl)c1cc(S(=O)(=O)NCc2ccc3c(c2)OCO3)ccc1F	7%	26%
CCOC(=O)c1[nH]c2ccc(OC)cc2c1NC(=O)CCN1CCC(C(=O)OCC)CC1	-12%	-12%
N#Cc1nc(-c2ccc(F)cc2)oc1N1CCN(C(=O)c2cccs2)CC1	-8%	-6%
COc1ccccc1CNc1ccc(-c2nc(C(C)C)no2)cc1[N+](=O)[O-]	-1%	5%
CCOc1ccc(C(=O)Nc2ccc(OCc3cc(=O)n4cccc(C)c4n3)cc2)cc1	-12%	-25%
O=C(Cc1ccc(Cl)cc1)Oc1ccc2ccccc2c1	2%	22%
O=C(NCc1ccc(Cl)cc1)C(=O)NCC(c1cccs1)S(=O)(=O)c1cccs1 (stereo not given)	?	?
CC(C)c1ccc(C(=O)COC(=O)c2ccc(S(=O)(=O)NCc3ccco3)cc2)cc1	-4%	4%
Cc1ccc(NC(=O)C(Sc2ncccn2)c2ccccc2)cc1 (stereo not given)	53%[activator]	0%
Clc1cccc(CNCCCn2ccnc2)c1	-5%	-12%
CC(C)CCn1c(Oc2ccccc2F)nc2c1c(=O)n(C)c(=O)n2C	2%	-25%
CCC(=O)N1N=C(c2ccccc2NS(=O)(=O)CC)CC1c1ccco1 (stereo not given)	15%	-5%
O=C(Nc1ccccc1)N(Cc1cccs1)c1ccc(Cl)cc1	7%	-7%
COc1ccc2c(C)c(CC(=O)NC3CCCC3)c(=O)oc2c1OC	-3%	-1%
Cc1c(Cl)c(C(F)(F)F)nn1CC(=O)Nc1c(Cl)cccc1Cl	2%	9%
COc1cc(NC(=O)Cc2sc(C)nc2-c2cccs2)cc(OC)c1OC	18%	29%
CCN1CCN(c2nc3ncn(CC(=O)Nc4ccc(F)c(C)c4)c(=O)c3s2)CC1	3%	27%
Cc1ccc(O)c(-c2cc(C(=O)NCc3ccncc3)[nH]n2)c1	3%	40%[activator]
COc1ccccc1N1CCN(c2ncnc3c2cnn3-c2cccc(Cl)c2)CC1	-4%	-4%
Cc1ccc(OCC(=O)Nc2cccc(OCc3cc(=O)n4ccccc4n3)c2)cc1C	-9%	-10%
Cc1cc(C)c2c(c1)C(=O)/C(=C\c1ccccc1)CC2	-4%	0%
COC(=O)CCNC(=O)c1ccccc1-c1ncc(-c2ccc(C)cc2)o1	37%[activator]	0%
Cc1ccc(NC(=O)CN2C(=O)COc3ccc(S(=O)(=O)NC4CCCC4)cc32)cc1N(C)C	46%[activator]	-22%
COc1ccc(C(C)NC(=O)CN(c2cc(OC)ccc2OC)S(=O)(=O)c2ccccc2)cc1 (stereo not given)	57%[activator]	-21%
CC(C)(C)NC(=O)NC(=O)COC(=O)c1ccc2ccccc2n1	-9%	7%
O=C(NC(CCCc1ccccc1)c1ccccc1)c1ccc[n+]([O-])c1 (stereo not given)	5%	27%
Cc1ccc2ncc3c(-c4ccc(F)cc4)nn(CC(=O)Nc4ccccc4C)c3c2c1	-13%	-28%
CN(C)S(=O)(=O)c1cccc(CSc2nnc(-c3ccc(Cl)cc3)n2N)c1	?	-4%
Cn1c(=O)c2c(ncn2CC(=O)c2ccc3ccccc3c2)n(C)c1=O	-18%	-6%
COc1cccc(OC)c1C(=O)Oc1ccc2c(c1)O/C(=C\c1cccnc1)C2=O	18%	0%
CCOc1ccc(OCC)c(NC(=O)c2ccc(-c3ccccc3)s2)c1	12%	0%
COc1ccc(CCNC(=O)CCCCCn2c(SCC(N)=O)nc3cc4c(cc3c2=O)OCO4)cc1OC	16%	0%
NC(=O)CCC(NC(=O)c1ccc(-c2ccc(F)cc2)o1)C(=O)O (stereo not given)	-9%	1%
Cc1ccccc1C1C2=C(COC2=O)Nc2c1c(=O)n(C)c(=O)n2C (stereo not given)	5%	-2%
CCN(CC)c1ccc2cc(-c3nnc(-c4cccc(Cl)c4)o3)c(=O)oc2c1	17%	0%
O=C(CCc1ccsc1)N(Cc1ccncc1)C1CC1	18%	7%
CCOc1cc(C2CC(=O)NC(SCC(=O)OC)=C2C#N)ccc1O (stereo not given)	-17%	-1%
CN(CCOc1ccc(Cl)cc1)Cc1nc(N)nc(N)n1	-3%	12%
Cc1ccc(CCNC(=O)c2ccc(CNS(=O)(=O)c3ccc(F)cc3)cc2)cc1	-6%	-16%

(list continues)
mol	2A Renilla	StopGo FLuc
FC(F)(F)c1cccc(N/N=C/c2ccc(Cl)cc2Cl)c1	15%	49%[activator]
CCOc1ccc(CCNC(=O)c2cc3cc4ccc(OC)cc4nc3s2)cc1OCC	-9%	7%
CCc1nnc2sc(-c3ccc(CNC(=O)C(C)(C)Oc4ccc(Cl)cc4)cc3)nn12	?	?
CN(C)C(=O)c1c(NC(=O)c2ccccc2F)sc2c1CCC(C(C)(C)C)C2 (stereo not given)	24%	0%
Cc1ccnn1Cc1cc(C(=O)O)c2ccccc2n1	5%	7%
O=C(O)/C=C/c1c(Cl)cccc1Cl	-7%	21%
Cc1cc(C)n(C(C)CC(=O)NCc2ccc(Cl)cc2)n1 (stereo not given)	-9%	-14%
CC1CCN(C(=O)Cn2cc(SCC(=O)NCc3ccc(F)cc3)c3ccccc32)CC1	18%	-18%
S=C1NC2=C(CCc3ccccc32)C(c2ccc(Cl)cc2)N1 (stereo not given)	7%	12%
COCCNC(=O)CCCn1c(=O)c2cc(OC)c(OC)cc2n(CC(=O)Nc2ccc(F)cc2)c1=O	-7%	-3%
COC(=O)c1cc2sccc2n1Cc1nc(-c2ccc(C)cc2)oc1C	11%	88%[activator]
Cc1ccc(CNC(=O)c2ccc(Cn3c(SCc4ccccc4F)nc4cccnc43)cc2)cc1	5%	15%
COc1ccc(Cn2nc(C(=O)O)c3ccccc3c2=O)cc1	8%	0%
CCC(C(=O)NC(=O)NC(C)=O)c1ccccc1 (stereo not given)	-4%	-17%
COc1cccc(NC(=O)Cn2c(C)cc(=O)n3nc(-c4cccs4)nc23)c1	-2%	1%
Cc1sc2nc(SCC(=O)N3CCCC3)[nH]c(=O)c2c1C	-12%	17%
CCOc1ccc(CNC(=O)c2ccc3nc(CC)c(CC)nc3c2)cc1OC	-15%	-27%
COc1ccc(S(=O)(=O)c2cn(CC(=O)Nc3ccc(C)c(F)c3)c3nc(C)ccc3c2=O)cc1	0%	-2%
Cc1ccccc1-c1nc(SCc2cc(=O)n3nc(C(C)C)sc3n2)n[nH]1	10%	0%
O=C(Cn1cc(C(F)(F)F)ccc1=O)Nc1cc(C(F)(F)F)ccc1Cl	3%	-9%
COc1cc2nc(NC(=O)c3ccc(S(=O)(=O)N4CCc5ccccc54)cc3)sc2cc1OC	?	?
CCOC(=O)c1c(-c2ccc(OC)c(OC)c2)csc1NC(=O)c1ccccc1F	3%	-10%
Cc1ccc(Cl)cc1Nc1nn2c(=O)c3ccc(C(=O)NC4CCC(C)CC4)cc3nc2s1 (stereo not given)	-11%	0%
Cc1ccccc1Nc1nc(N)nc(CSCc2ccc(C#N)cc2)n1	-8%[1.06 µM]	19%
Cc1cccc(-n2ccnc2SC2CCCCC2=O)c1 (stereo not given)	14%	0%
CC(C)(C)OC(=O)COC(=O)c1cccnc1Nc1ccccc1F	10%	91%[activator]
CCOc1ccc(C(=O)Nc2ccc(NC(=O)c3ccccc3)cc2)cc1Br	?	?
Cc1oc(-c2cccs2)nc1C(=O)N1CCCCC1	9%	30%
CC1CCN(S(=O)(=O)NC(C)Cc2ccco2)CC1 (stereo not given)	52%[activator]	-3%
CNC(=S)NNC(=O)C1CC1	5%	4%

A different layout for part of the listing above:
Screens in order – 2A Renilla | StopGo FLuc
CCOc1ccc(C(=O)Nc2ccc(NC(=O)c3ccccc3)cc2)cc1Br
→ ? | ?
Cc1oc(-c2cccs2)nc1C(=O)N1CCCCC1
→ 9% | 30%
